GLA inh pH 4.5 = alpha-galactosidase A (human) inhibition, pH 4.5. P06280. AID 1467. 230,000 tested, under 10 active. purified enzyme, 4-MU-alpha-Gal fluorescence, pH 4.5. activity change, negative = inhibition, % at 105 µM; inconclusive = small, poorly fitted or top-dose-only inhibition, or a rising curve; inactive = flat fitted curve, though single readings scatter; no compound was filed as active;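 further: 0% = full activity with enzyme and -100% = basal without enzyme; dose as in the result columns while the protocol names 77 µM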
Rango release inh = prevents RanGTP from dissociating the Rango-importin beta complex | Potency, µM (top dose mostly 46.1 µM), without a hit: top-dose activity change, negative = inhibition | Biochemical FRET Rango-importin beta, RanGTP-induced dissociation | O95149+P62826 | 340,000 tested, 0.071% active; active means falling FRET ratio curve, often poorly fitted, with flat reads before Ran was added; inconclusive means other falling curves, or compound fluorescence or quenching; inactive means flat or rising ratio curve;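 further: potency means the concentration at half of the fitted maximal effect; % of control where 0% means no effect; nearly all actives have a fitted effect of over 45% in size; -100% = wells without RanGTP and RCC1; the record marks most hits as doubtful in a second field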
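FRET read at 45 min, room temperature: inhibitors block the CFP/YFP signal rise when RanGTP (0.6 uM Ran, 2 mM GTP, 0.2 uM RCC1) frees Rango (0.1 uM) from importin beta (0.25 uM). Pre-read after 5 min compound exposure flags interference.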
Rango-impB inh = inhibitors of Rango-importin beta complex formation | Rango CFP/YFP FRET sensor + importin beta, 45 min | Potency, µM (doses to about 92.2 µM), for inactives: at the top dose inhibition of complex formation | 340,000 tested, 0.031% active | AID 540263; active = rising FRET ratio curve, often small or poorly fitted; inconclusive = mostly compound fluorescence or quenching in the first reads; inactive = flat curves in all reads;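 further: potency means the concentration at half of the fitted maximal effect; 0% = DMSO wells and 100% = buffer wells lacking importin beta; nearly all actives have a fitted effect of over 15% in size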
Target sequence (Q14974 whole entry, looked up): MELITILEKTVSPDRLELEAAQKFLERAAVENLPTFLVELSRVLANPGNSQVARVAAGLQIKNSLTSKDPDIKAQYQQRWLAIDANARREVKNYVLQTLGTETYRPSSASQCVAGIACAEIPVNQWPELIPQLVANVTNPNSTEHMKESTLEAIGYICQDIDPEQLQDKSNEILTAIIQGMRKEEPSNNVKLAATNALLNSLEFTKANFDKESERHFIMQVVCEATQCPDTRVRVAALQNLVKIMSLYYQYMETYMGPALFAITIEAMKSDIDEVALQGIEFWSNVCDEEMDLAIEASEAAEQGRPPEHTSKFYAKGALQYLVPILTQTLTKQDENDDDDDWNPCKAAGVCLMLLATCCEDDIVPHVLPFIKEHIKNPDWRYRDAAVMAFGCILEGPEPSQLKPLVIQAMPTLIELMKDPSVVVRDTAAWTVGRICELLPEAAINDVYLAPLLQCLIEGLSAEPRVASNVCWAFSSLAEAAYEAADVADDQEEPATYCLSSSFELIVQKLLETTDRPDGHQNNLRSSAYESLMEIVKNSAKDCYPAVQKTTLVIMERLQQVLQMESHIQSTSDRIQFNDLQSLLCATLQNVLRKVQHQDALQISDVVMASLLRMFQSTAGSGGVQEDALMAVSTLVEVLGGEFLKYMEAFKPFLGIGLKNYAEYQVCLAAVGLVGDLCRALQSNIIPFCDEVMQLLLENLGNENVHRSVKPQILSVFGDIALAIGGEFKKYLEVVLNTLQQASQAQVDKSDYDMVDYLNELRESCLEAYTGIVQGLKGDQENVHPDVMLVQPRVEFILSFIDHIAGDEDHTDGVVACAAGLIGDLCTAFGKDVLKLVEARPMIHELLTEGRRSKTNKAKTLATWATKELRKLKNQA
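Inhibition scored from the CFP 486 nm/YFP 530 nm FRET ratio 45 min after adding 0.125 microM importin beta to 50 nM Rango biosensor preincubated 5 min with compound (room temperature, PBS with DTT, Tween-20, BSA). No-importin wells as positive control.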
miR-21 reporter = raises the signal of a miR-21 reporter; HeLa miR-21 FLuc reporter, luciferase, 48 h; Potency, µM (doses to about 38.3 µM), for inactives: at the top dose reporter change, positive = more light; 340,000 tested, under 10 active; active = well fitted rising curve with a large enough effect; inconclusive = small, poorly fitted or top-dose-only effect; inactive = no such curve, though single readings can be large or run the other way;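 further: % of control where 0% means no effect; miR-21 action dims this reporter so a rising signal means less miR-21 action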
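Compounds were titrated across several concentrations (up to approximately 40 uM) and incubated 48 hours with HeLa miR-21-FLuc reporter cells (miR-21 target sequence downstream of FLuc, endogenous miR-21). Readout was firefly luciferase luminescence after lytic detection reagent.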
* hit, by the source's call; ? = inconclusive; . = not tested or not shown; & = joins results of further samples. Only part of the results is shown. The share of hits here may be higher or lower than overall.

GLA inh pH 4.5 | Rango release inh | Rango-impB inh | miR-21 reporter | smiles
1.9 | 12.7% | -1.8% | -1.3% | COC(=O)C(C)Sc1ccc2nnc(-c3cccc(F)c3)n2n1 (stereo not given)
-9.6 | 7.4% | -0.8% | 6.6% | c1ccc(-c2cnn3nnnc3n2)cc1
. | -9.2% | 0.6% | -12.9% | O=C(Nc1ccc(F)cc1)c1ccc(=O)[nH]n1
. | 5.9% | 1.0% | -5.9% | O=C(CCN1CCN(C/C=C/c2ccccc2)CC1)Nc1ccccc1Cl
. | 8.9% | -1.0% | 0.5% | O=C(O)COCC(=O)Nc1ccc2c(c1)oc1ccccc12
. | -3.3% | -2.9% | -5.0% | COCCn1cnc2c1c(=O)n(CC(=O)NC(=O)NC(C)(C)C)c(=O)n2Cc1ccccc1
. | -2.7% | -1.3% | . | CCS(=O)(=O)N1Cc2ccccc2CC1C(=O)N(C)CC(=O)Nc1cccc(F)c1 (stereo not given)
. | -18.5% | 1.3% | -4.0% | CC(=O)Nc1ccc(Nc2cc(C)c3ccccc3n2)cc1
6.1 | -4.9% | 0.0% | -0.9% | COc1ccc(CCNCC(=O)N2C(C)CCCC2C)cc1OC (stereo not given)
-1.4 | 12.1% | -1.9% | -9.4% | CCCC(=O)NCCc1cc2c(C)ccc(C)c2[nH]c1=O
. | 6.5% | -1.1% | . | O=C(COC(=O)c1ccc(S(=O)(=O)NCc2ccco2)cc1)NCc1ccccc1
-24.6 | 1.9% | 4.9% | -14.1% | CCOc1ccc(C(=O)Nc2ccccc2N2CCCC2)cc1
-6.1 | 1.6% | 0.2% | -0.9% | COc1ccc(-c2[nH]ncc2CN2CCC(C(=O)N3CCOCC3)CC2)c(F)c1
-7.0 | -11.2% | 0.6% | 2.1% | COc1cccc(C(=O)NCC2CCN(c3ccc(S(=O)(=O)N4CCOCC4)cc3)CC2)c1
-1.4 | 10.2% | 3.1% | -1.4% | O=S(=O)(c1ccc(N2CCN(c3ccc(F)cc3)CC2)cc1)N1CCCC1
. | 10.7% | 0.4% | -4.1% | COc1ccc(CN2C(=O)c3ccccc3C2=O)cc1
. | 7.7% | 0.1% | -24.6% | CCc1nccn1CCC(=O)N1CCCC(N2CCN(c3cccc(Cl)c3)CC2)C1 (stereo not given)
. | -7.0% | -5.1% | -16.4% | CCOC(=O)N1CCN(S(=O)(=O)c2ccc(C(=O)N(CCN(CC)CC)c3nc4ccc(C)cc4s3)cc2)CC1
-2.9 | 6.6% | -2.3% | 3.2% | CCn1c(SCC(=O)Nc2ccccc2)nnc1-c1ccc(S(=O)(=O)N2CCOCC2)cc1
0.6 | 44.4% | -0.7% | -15.8% | CCc1ccc(OCC(=O)Nc2cccc3c2CCCC3)cc1
-3.0 | 0.9% | 0.2% | 1.5% | O=c1[nH]c(CN2CCN(S(=O)(=O)c3ccc4c(c3)OCCO4)CC2)nc2sc3c(c12)CCCC3
-1.8 | 22.3% | -3.0% | -54.6% | O=C(NCCc1c[nH]c2ccccc12)c1cnc2n(c1=O)CCS2
-3.4 | -0.9% | 1.0% | 7.4% | Cc1cc(C(=O)OCCN2C(=O)c3ccccc3C2=O)c2ccccc2n1
6.1 | 17.2% | 0.0% | -3.1% | Cn1nc(-c2ccccc2)cc1NC(=O)CCCC(=O)O
. | 6.4% | 1.2% | -4.4% | Cc1cccc(N(CC(=O)NC2CCCCC2)C(=O)c2csnn2)c1
-5.9 | 6.4% | 2.1% | 0.6% | Cc1cc(C(=O)N2CCN(c3ccccn3)CC2)no1
. | -18.9% | 3.5% | -0.4% | O=C(O)c1ccc2c(=O)n3c(nc2c1)/C(=C/c1ccc(Cl)c([N+](=O)[O-])c1)CC3
4.0 | -9.0% | -2.6% | -4.6% | CC1(C)CC(=O)C(C=NCCN2CCN(C(=O)c3ccccc3)CC2)=C(O)C1
. | -3.3% | -2.2% | . | COc1ccc(C(=O)Nc2cccc(C(=O)Nc3cc(C)ccn3)c2)cc1
. | -0.2% | 7.3% | . | COc1cccc(/C=C/C(=O)OCC(=O)c2c[nH]c3ccccc23)c1
-21.8 | ? | ? | -103.6% | O=C(O)c1ccc(N/N=C/c2ccc(-c3cc(Cl)ccc3Cl)o2)cc1
-12.3 | 24.7% | -3.0% | -21.0% | CC(=O)Nc1ccc(SCC(=O)c2cc(C)n(-c3ccccc3)c2C)cc1
. | -3.0% | 1.2% | . | CCCCn1c(N)c(N(CC(C)C)C(=O)C2CCN(S(=O)(=O)c3ccc(Cl)cc3)CC2)c(=O)[nH]c1=O
2.4 | -0.4% | ? | -8.8% | O=C(COC(=O)c1cc2ccccc2oc1=O)c1cccc([N+](=O)[O-])c1
. | -7.9% | 7.5% | . | Cc1cccc(-n2c(-c3ccc(Br)o3)n[nH]c2=S)c1
-4.2 | 0.1% | -0.5% | -0.1% | O=S(=O)(NC(=NCc1ccccc1)c1ccccc1F)c1ccccc1
. | 1.4% | -0.8% | . | CCC(C)(C)NC(=O)C(c1ccccc1)N(Cc1cccs1)C(=O)Cn1nnc2ccccc21 (stereo not given)
. | -12.0% | 0.0% | -9.7% | Cc1ccc(NS(=O)(=O)c2cc(C(=O)NCc3cccnc3)ccc2C)cc1
. | -0.2% | 3.2% | . | CCOC(=O)C1=C(c2ccccc2)NC(=O)NC1c1cccc(OC)c1OC (stereo not given)
1.6 | 0.9% | 6.8% | -44.5% | CN(C)c1ccc(C(=O)OCc2ccccc2)cc1
1.3 | -18.4% | 0.6% | -12.1% | O=C(C1=COCCO1)N1CCN(S(=O)(=O)c2cccc(Cl)c2Cl)CC1
0.1 | -4.3% | 0.3% | 10.7% | Cc1c(C)n(Cc2ccccc2)c2ncnc(N)c12
0.4 | 11.2% | 1.0% | -6.1% | CCc1nc(-c2ccc(C)nc2OC)no1
2.6 | -9.4% | 0.1% | 2.9% | Cc1ccc(NC(=O)CSc2nnc(-c3cnccn3)n2-c2ccccc2)cc1
-5.7 | -7.4% | -1.0% | 9.7% | CS(=O)(=O)N1CCN(Cc2ccc(C(F)(F)F)cc2)CC1
-5.9 | 7.3% | 0.2% | -2.7% | O=C1CC(C(=O)NCc2ccccc2)N=C(N2CCCCC2)N1 (stereo not given)
-8.5 | -11.4% | 0.1% | -1.3% | O=C(CCCN1C(=O)/C(=C/c2cccs2)SC1=S)NNC(=O)c1ccncc1
-5.1 | . | . | ? | CC[C@@H]1CC=C[C@H]2[C@H]1C(=O)N(Cc1ccccc1)[C@H]2c1ccc2ccccc2c1
-1.6 | 0.3% | 3.8% | -24.9% | O=C(Cc1cccs1)NCc1ccc(F)cc1
4.9 | -7.6% | ? | 6.1% | CCCCn1c(-c2ccco2)n[nH]c1=S

The results go on.
GLA inh pH 4.5 | Rango release inh | Rango-impB inh | miR-21 reporter | smiles
-7.6 | . | . | 2.9% | NC1=NC(c2cn[nH]c2-c2ccc(F)cc2)n2c(nc3ccccc32)N1 (stereo not given)
5.3 | -7.9% | -0.8% | -3.7% | CCOc1ccc(C(C)=O)cc1CSc1nnc(-c2cccs2)n1CC1CCCO1 (stereo not given)
. | ? | -1.4% | . | O=C(Nc1nc2ccc(Cl)cc2s1)C1CC1
1.2 | -1.3% | -0.8% | -0.5% | C=CCSc1nc(C)c(CC(=O)OCCCC)c(=O)[nH]1
. | -7.8% | 0.2% | . | O=[N+]([O-])c1cccc(C=NNC(=S)NC23CC4CC(CC(C4)C2)C3)c1
. | -7.6% | -0.9% | . | CN(C(=O)COC(=O)CCC1CCCCC1)c1c(N)n(Cc2ccccc2)c(=O)[nH]c1=O
. | 0.4% | 3.4% | . | Cc1c(NC(=O)c2ccc(NS(=O)(=O)c3cccc([N+](=O)[O-])c3)cc2)c(=O)n(-c2ccccc2)n1C
1.4 | 4.6% | 3.2% | -0.6% | CCc1c(OC(C)=O)c2ccccc2n(C)c1=O
-13.0 | 0.2% | 0.8% | 1.2% | CC1CCN(CCn2c(=S)[nH]c3cc4c(cc3c2=O)OCO4)CC1
-4.5 | -7.1% | -0.2% | -13.6% | Cc1cc(F)ccc1NC(=O)c1cnccn1
4.0 | -18.6% | ? | -6.9% | O=C(COC(=O)c1cncc(Br)c1)NCC1CCCO1 (stereo not given)
-0.6 | -25.1% | 5.1% | -6.4% | CSCCC(NS(=O)(=O)c1ccc(Cl)cc1)C(=O)OCC(=O)c1ccc(F)cc1 (stereo not given)
-1.9 | -13.0% | 1.2% | -11.1% | COc1ccc(OC)c(C2c3c(oc4ccccc4c3=O)C(=O)N2CCCN(C)C)c1 (stereo not given)
. | -3.0% | -0.4% | 6.2%&-5.8% | COc1ccc(OC)c(NS(=O)(=O)c2ccc3c(c2)C(C)(C)C(=O)N3C)c1
-8.9 | 4.0% | 4.9% | 10.4% | Cc1ccc(-c2nc(CS(=O)(=O)CC(=O)N3CCc4ccccc4C3)c(C)o2)cc1
. | -8.3% | 7.5% | -3.0% | CCOc1ccccc1N(CC(=O)NC1CCCCC1)S(=O)(=O)c1ccccc1
-3.2 | 1.8% | -1.0% | -7.9% | CCOC(=O)COc1ccccc1/C=C1/NC(=O)NC1=O
3.6 | 0.8% | 0.8% | 2.1% | CCOC(=O)c1cnc2ccccc2c1NCCO
. | 8.7% | -0.5% | . | CC(Sc1ncnc2sc(-c3ccccc3)cc12)C(=O)NCC1CCCO1 (stereo not given)
. | -4.5% | -1.8% | -0.9% | CCN(CC)Cc1c(C(=O)N/N=C/c2cccs2)nnn1-c1nonc1N
-13.8 | -3.5% | -0.3% | -1.5% | O=C(N/C(=C/c1cccnc1)C(=O)N1CCOCC1)c1ccccc1Cl
1.6 | 29.4% | 0.1% | -0.9% | CCn1c(SCC(=O)c2ccc(Br)cc2)nnc1C(C)NC(=O)Cc1ccc(OC)cc1 (stereo not given)
-27.2 | -6.2% | 3.1% | ? | COc1cnc(-c2ccccn2)nc1Sc1ccc(C)cc1
. | 0.3% | -2.4% | -4.3% | Cc1ccc(C2=NS(=O)(=O)N(C)C(C(=O)N3CCOCC3)=C2)cc1
. | 22.5% | 0.8% | -0.6% | O=C(NCc1ccccc1Cl)C1CCCN1S(=O)(=O)c1ccccc1F (stereo not given)
. | 1.1% | -3.1% | -8.1% | COC(=O)c1ccccc1C(=O)N(Cc1cccnc1)CC1CCCN(C2CCCCC2)C1 (stereo not given)
-5.1 | ? | ? | -3.3% | N#Cc1sc2nc(-c3cccs3)cc(-c3ccc(F)cc3)c2c1N
. | ? | ? | -4.4% | O=C(c1cccc(F)c1)N1CCN(C(=O)c2cc3nc(-c4ccco4)cc(C(F)(F)F)n3n2)CC1
. | 18.2% | -1.2% | 1.7% | CCOC(=O)COc1ccc2c(c1)c(C(C)=O)c(C)n2-c1ccc(OC)cc1
. | 4.2% | 1.5% | . | O=C(Cc1c(F)cccc1Cl)NNC(=O)c1ccncc1
. | 6.9% | 5.1% | 26.8% | N#Cc1ccc(-c2nc3ccc(Br)cc3c(=O)n2O)cc1
. | -6.4% | ? | 2.1% | CC(C)CN1CCC(=O)N(CCC#N)CC1
. | -2.9% | 0.3% | . | COc1ccc2cc(C[C@@H]3CC[C@@H](CO)O3)ccc2c1
-2.0 | -4.4% | -2.8% | -28.1% | Cc1cc(C(=O)N/N=C/C(Cl)=C/c2ccccc2)c(C)o1
. | -9.3% | ? | -11.3% | CC(=O)c1ccc(NC(=S)NC(=O)/C=C/c2ccc(F)cc2)cc1
. | -7.2% | -2.1% | 2.6% | O=C(OCC(=O)N1CCCC1)c1cc([N+](=O)[O-])ccc1Cl
0.0 | -10.8% | -0.1% | 0.4% | COC(=O)CCC(=O)N1CCc2cc(S(=O)(=O)N3CCN(c4ccccc4Cl)CC3)ccc21

Three of the entries above in order of their number in miR-21 reporter, rising:
SMILES	GLA inh pH 4.5	Rango release inh	Rango-impB inh	miR-21 reporter
COC(=O)c1ccccc1C(=O)N(Cc1cccnc1)CC1CCCN(C2CCCCC2)C1 (stereo not given)	.	1.1%	-3.1%	-8.1%
N#Cc1sc2nc(-c3cccs3)cc(-c3ccc(F)cc3)c2c1N	-5.1	?	?	-3.3%
N#Cc1ccc(-c2nc3ccc(Br)cc3c(=O)n2O)cc1	.	6.9%	5.1%	26.8%

Screens from PubChem.
